Compound activity as filed in PubChem.
A1 apoptosis 2 = A1 inhibition read as caspase activation. MEF A1-2A-BIM cells, caspase-Glo luminescence, 3 h; percent of clofoctol response, DMSO zero. caspase activation, % (concentration not given with the values). 24,000 tested, under 10 active. AID 2465; in the data active = caspase activation above about 5.9%;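 also: wells of about 30 µL received 50 nL stock; the first replicate is given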
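system = A1-2A-BIM-expressing MEF cells | quantity = 2500 MEF cells/well | dosing = 50 nL compound per well, pinned | schedule = overnight cell settling, then 3 h compound exposure, 37 °C | signal = luminescence from DEVD-luciferin Caspase-Glo reagent, 1:1 in 50 mM HEPES, 1 h RT | read-out = Caspase-3/7 activation, seen as rise in luminescence signal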
The depositor's hits bear a star.

SMILES	A1 apoptosis 2
C[C@@H]1CN([C@H](C)CO)C(=O)Cc2cc(NS(=O)(=O)c3ccccc3)ccc2O[C@@H]1CN(C)S(=O)(=O)c1cccs1	0.4
C[C@@H]1CN([C@H](C)CO)C(=O)c2cc(NC(=O)Nc3cccc4ccccc34)ccc2O[C@@H](C)CCCCO[C@H]1CN(C)S(C)(=O)=O	-1.0
C[C@@H]1CN([C@@H](C)CO)C(=O)c2cc(NS(=O)(=O)c3ccccc3)ccc2O[C@@H]1CN(C)C(=O)NC1CCCCC1	-0.7
C[C@@H]1CCCCO[C@@H](CN(C)S(=O)(=O)c2cn(C)cn2)[C@@H](C)CN([C@H](C)CO)C(=O)c2cc(NS(=O)(=O)c3ccccc3)ccc2O1	-0.3
C[C@H](CO)N1C[C@H](C)[C@H](CN(C)S(=O)(=O)c2cn(C)cn2)Oc2c(NC(=O)Nc3ccc(F)cc3)cccc2C1=O	-0.8
COc1ccc(CN(C)C[C@H]2Oc3ccc(NC(=O)Cn4cnnn4)cc3C(=O)N([C@@H](C)CO)C[C@H]2C)cc1	-1.2
COc1ccc(NCc2ccc(C(=O)Nc3ccccc3N)cc2)cc1OC	0.0
C[C@@H]1CCCCO[C@@H](CN(C)C(=O)Nc2ccc(F)cc2)[C@@H](C)CN([C@H](C)CO)C(=O)c2cc(NS(=O)(=O)c3cn(C)cn3)ccc2O1	-0.4
C[C@@H]1CN([C@@H](C)CO)C(=O)c2cc(NC(=O)Nc3cccc4ccccc34)ccc2O[C@H]1CN(C)C(=O)Nc1ccccc1	-1.1
C[C@@H]1CN([C@@H](C)CO)C(=O)CCCn2nncc2CO[C@@H]1CN(C)C(=O)Nc1ccnc(N2CCOCC2)c1	1.3
C[C@@H]1CCCCO[C@@H](CN(C)Cc2ccc(C(=O)Nc3ccccc3N)cc2)[C@@H](C)CN([C@H](C)CO)C(=O)c2cc(NS(=O)(=O)c3ccc(F)cc3)ccc2O1	1.9
C[C@@H]1CCCCO[C@@H](CN(C)Cc2ccc(C(=O)Nc3ccccc3N)cc2)[C@@H](C)CN([C@H](C)CO)C(=O)c2cc(NC(=O)Nc3ccccc3)ccc2O1	0.9
C[C@@H]1CN([C@@H](C)CO)C(=O)Cc2cc(NC(=O)CCN3CCOCC3)ccc2O[C@H]1CN(C)S(=O)(=O)c1ccccc1	0.8
C[C@H]1CN([C@@H](C)CO)C(=O)c2cccc(NC(=O)NC3CCCCC3)c2O[C@@H]1CN(C)Cc1ccc(C(=O)O)cc1	-1.2
COc1ccc(NC(=O)Nc2ccc3c(c2)CC(=O)N([C@@H](C)CO)C[C@@H](C)[C@@H](CN(C)C)O3)cc1	-0.2
C[C@@H]1CN([C@@H](C)CO)C(=O)c2cc(NC(=O)Nc3ccccc3)ccc2O[C@@H](C)CCCCO[C@H]1CN(C)C(=O)Nc1ccccc1	0.2
C[C@@H]1CCCCO[C@H](CN(C)Cc2ccc3c(c2)OCO3)[C@@H](C)CN([C@H](C)CO)C(=O)c2cc(N(C)C)ccc2O1	1.7
Cc1noc(C)c1NC(=O)Nc1cccc2c1O[C@H](CN(C)C(=O)NC(C)C)[C@H](C)CN([C@@H](C)CO)C2=O	-0.5
Cc1noc(C)c1NC(=O)Nc1ccc2c(c1)C(=O)N([C@H](C)CO)C[C@H](C)[C@H](CN(C)C(=O)Nc1ccc(F)cc1)O2	-0.1
C[C@@H]1CN([C@@H](C)CO)C(=O)c2cc(NC(=O)CCC(F)(F)F)ccc2O[C@@H](C)CCCCO[C@@H]1CN(C)C(=O)Nc1cccc2ccccc12	-0.2

Sorted by molecular weight (high to low): part of the list above.
SMILES	A1 apoptosis 2
C[C@@H]1CCCCO[C@@H](CN(C)S(=O)(=O)c2cn(C)cn2)[C@@H](C)CN([C@H](C)CO)C(=O)c2cc(NS(=O)(=O)c3ccccc3)ccc2O1	-0.3
C[C@@H]1CN([C@@H](C)CO)C(=O)c2cc(NC(=O)Nc3cccc4ccccc34)ccc2O[C@H]1CN(C)C(=O)Nc1ccccc1	-1.1
COc1ccc(NC(=O)Nc2ccc3c(c2)CC(=O)N([C@@H](C)CO)C[C@@H](C)[C@@H](CN(C)C)O3)cc1	-0.2

The main list resumes, repeating the 2 entries before the break.
SMILES	A1 apoptosis 2
Cc1noc(C)c1NC(=O)Nc1ccc2c(c1)C(=O)N([C@H](C)CO)C[C@H](C)[C@H](CN(C)C(=O)Nc1ccc(F)cc1)O2	-0.1
C[C@@H]1CN([C@@H](C)CO)C(=O)c2cc(NC(=O)CCC(F)(F)F)ccc2O[C@@H](C)CCCCO[C@@H]1CN(C)C(=O)Nc1cccc2ccccc12	-0.2
COc1ccc(NC(=O)N(C)C[C@H]2Oc3ccc(NC(=O)NC(C)C)cc3C(=O)N([C@@H](C)CO)C[C@H]2C)cc1	1.2
Cc1noc(C)c1NC(=O)Nc1ccc2c(c1)C(=O)N([C@@H](C)CO)C[C@H](C)[C@@H](CN(C)C(=O)Nc1ccc3c(c1)OCO3)OCCCC[C@H](C)O2	-0.6
C[C@H]1CN([C@@H](C)CO)C(=O)c2cccc(NC(=O)c3ccncc3)c2O[C@H]1CN(C)C(=O)NC1CCCCC1	1.6
C[C@H](CO)N1C[C@H](C)[C@H](CN(C)Cc2ccc(C(=O)Nc3ccccc3N)cc2)Oc2ccc(NS(=O)(=O)c3cn(C)cn3)cc2CC1=O	-0.1
C[C@H]1CN([C@@H](C)CO)C(=O)CCCn2nncc2CO[C@H]1CN(C)S(=O)(=O)c1ccc(Oc2ccccc2)cc1	-0.9
C[C@@H]1CN([C@@H](C)CO)C(=O)c2cc(NS(=O)(=O)c3ccccc3)ccc2O[C@@H](C)CCCCO[C@H]1CN(C)S(=O)(=O)c1ccc(F)cc1	-0.3
Cc1noc(C)c1NC(=O)Nc1ccc2c(c1)C(=O)N([C@@H](C)CO)C[C@H](C)[C@@H](CN(C)S(=O)(=O)c1ccccc1)OCCCC[C@H](C)O2	-1.1
CNC[C@@H]1OCCCC[C@@H](C)Oc2ccc(NS(=O)(=O)c3cn(C)cn3)cc2C(=O)N([C@@H](C)CO)C[C@H]1C	1.6
C[C@H](CO)N1C[C@H](C)[C@@H](CN(C)S(=O)(=O)c2cn(C)cn2)Oc2ccc(NC(=O)c3ccncc3)cc2C1=O	-0.9
Cc1noc(C)c1S(=O)(=O)N(C)C[C@@H]1OCCCC[C@@H](C)Oc2ccc(NC(=O)Nc3ccc(F)cc3)cc2C(=O)N([C@@H](C)CO)C[C@@H]1C	0.2
CC(C)NC(=O)N(C)C[C@H]1Oc2ccc(NS(=O)(=O)c3cn(C)cn3)cc2C(=O)N([C@@H](C)CO)C[C@@H]1C	-0.8
C[C@@H]1CN([C@@H](C)CO)C(=O)CCCn2cc(nn2)CO[C@@H]1CN(C)C(=O)CCC(F)(F)F	1.9
C=CCOC(=O)[C@H]1[C@@H]2C(=O)O[C@@H](c3ccccc3)[C@@H](c3ccccc3)N2[C@@H](c2ccc(OCCOC(=O)[C@@H]3C[C@@H]4C(=O)N[C@@H](Cc5ccccc5)C(=O)N4[C@@H]3c3cccc(OCCO)c3)cc2)[C@]12C(=O)Nc1ccccc12	-1.5
Cc1noc(C)c1NC(=O)N(C)C[C@H]1Oc2ccc(NS(=O)(=O)c3ccccc3)cc2C(=O)N([C@H](C)CO)C[C@@H]1C	2.1
COc1ccc(S(=O)(=O)Nc2ccc3c(c2)C(=O)N([C@@H](C)CO)C[C@@H](C)[C@H](CN(C)S(=O)(=O)c2c(C)noc2C)OCCCC[C@@H](C)O3)cc1	-0.3
C[C@@H]1CN([C@H](C)CO)C(=O)c2cc(NC(=O)CCCN(C)C)ccc2O[C@@H]1CN(C)Cc1ccc2c(c1)OCO2	-0.2
COc1ccc(S(=O)(=O)Nc2ccc3c(c2)C(=O)N([C@H](C)CO)C[C@H](C)[C@H](CN(C)S(=O)(=O)c2ccc(C)cc2)OCCCC[C@@H](C)O3)cc1	-0.5
COc1ccc(CN(C)C[C@H]2Oc3ccc(NS(=O)(=O)c4cccs4)cc3C(=O)N([C@H](C)CO)C[C@H]2C)cc1	-0.5
C[C@@H]1CCCCO[C@@H](CN(C)C)[C@H](C)CN([C@@H](C)CO)C(=O)c2cc(NC(=O)Cc3ccccc3)ccc2O1	-1.0
Cc1ccc(S(=O)(=O)Nc2ccc3c(c2)C(=O)N([C@@H](C)CO)C[C@@H](C)[C@@H](CN(C)S(=O)(=O)c2c(C)noc2C)O3)cc1	0.6

Part of the list above, set out differently:
C[C@H]1CN([C@@H](C)CO)C(=O)c2cccc(NC(=O)c3ccncc3)c2O[C@H]1CN(C)C(=O)NC1CCCCC1
  A1 apoptosis 2: 1.6
COc1ccc(NC(=O)N(C)C[C@H]2Oc3ccc(NC(=O)NC(C)C)cc3C(=O)N([C@@H](C)CO)C[C@H]2C)cc1
  A1 apoptosis 2: 1.2

Following part
SMILES	A1 apoptosis 2
C[C@H](CO)N1C[C@H](C)[C@@H](CN(C)C(=O)Nc2ccc3c(c2)OCO3)Oc2ccc(NS(=O)(=O)c3cccs3)cc2CC1=O	0.3
C[C@@H]1CN([C@H](C)CO)C(=O)c2cccc(NC(=O)NC3CCCCC3)c2O[C@@H]1CN(C)Cc1ccncc1	-0.3
Cc1noc(C)c1NC(=O)Nc1ccc2c(c1)C(=O)N([C@@H](C)CO)C[C@@H](C)[C@@H](CN(C)CC1CCCCC1)O2	0.5
C[C@@H]1CN([C@@H](C)CO)C(=O)c2cc(NS(=O)(=O)c3ccc(F)cc3)ccc2O[C@@H](C)CCCCO[C@H]1CN(C)Cc1ccncc1	0.8
CC(C)NC(=O)Nc1ccc2c(c1)C(=O)N([C@H](C)CO)C[C@@H](C)[C@H](CN(C)C(=O)c1ccncc1)OCCCC[C@@H](C)O2	-0.2
Cc1noc(C)c1S(=O)(=O)Nc1cccc2c1O[C@H](CN(C)CC1CC1)[C@H](C)CN([C@H](C)CO)C2=O	0.3
Cc1noc(C)c1S(=O)(=O)N(C)C[C@H]1Oc2ccc(NC(=O)C3CC3)cc2CC(=O)N([C@@H](C)CO)C[C@H]1C	-1.7
O=C1O[C@@H](c2ccccc2)[C@@H](c2ccccc2)N2[C@@H](c3ccccc3OCCO)[C@]3(C(=O)Nc4ccccc43)[C@@H](C(=O)Nc3nc4ccccc4s3)[C@H]12	-0.7
C[C@H](CO)N1C[C@H](C)[C@@H](CN(C)Cc2ccc(Oc3ccccc3)cc2)Oc2c(NC(=O)c3ccc(-c4nccs4)cc3)cccc2C1=O	0.0
C[C@@H]1CN([C@@H](C)CO)C(=O)Cc2cc(NC(=O)NC3CCCCC3)ccc2O[C@@H]1CN(C)C(=O)Nc1ccc(C(F)(F)F)cc1	-0.2
Cc1noc(C)c1S(=O)(=O)N(C)C[C@@H]1Oc2c(cccc2N(C)C)C(=O)N([C@@H](C)CO)C[C@H]1C	-0.5
Cc1noc(C)c1NC(=O)Nc1ccc2c(c1)CC(=O)N([C@H](C)CO)C[C@H](C)[C@H](CN(C)C(=O)Nc1ccc(F)cc1)O2	0.2
COc1ccc(NC(=O)N(C)C[C@H]2OCCCC[C@@H](C)Oc3ccc(NS(=O)(=O)c4c(C)noc4C)cc3C(=O)N([C@H](C)CO)C[C@H]2C)cc1	-1.2
C[C@@H]1CN([C@@H](C)CO)C(=O)c2cc(NC(=O)Nc3cccc4ccccc34)ccc2O[C@H]1CN(C)CC1CCCCC1	-1.3
C[C@@H]1CCCCO[C@H](CN(C)Cc2ccncc2)[C@H](C)CN([C@H](C)CO)C(=O)c2cc(NS(C)(=O)=O)ccc2O1	0.8
C[C@H](CO)N1C[C@H](C)[C@@H](CN(C)Cc2ccc(C(=O)Nc3ccccc3N)cc2)Oc2ccc(NC(=O)Cn3cnnn3)cc2CC1=O	-0.4
C[C@@H]1CN([C@@H](C)CO)C(=O)c2cc(NC(=O)C3CC3)ccc2O[C@@H]1CN(C)Cc1ccc(C(F)(F)F)cc1	-1.4
COc1ccc(NC(=O)Nc2cccc3c2O[C@@H](CN(C)Cc2ccccc2)[C@@H](C)CN([C@@H](C)CO)C3=O)cc1	-0.2
C[C@H](CO)N1C[C@H](C)[C@@H](CN(C)S(=O)(=O)c2cn(C)cn2)Oc2c(NC(=O)c3nc4ccccc4s3)cccc2C1=O	-0.7
C[C@@H]1CN([C@@H](C)CO)C(=O)c2cccc(NC(=O)C3CC3)c2O[C@@H]1CN(C)Cc1ccc(-c2ccccc2)cc1	-0.2
C[C@@H]1CN([C@H](C)CO)C(=O)c2cc(N(C)C)ccc2O[C@H]1CN(C)S(=O)(=O)c1ccc(F)cc1	-0.2
Cc1ccc(S(=O)(=O)N(C)C[C@H]2Oc3ccc(NC(=O)Nc4ccc5c(c4)OCO5)cc3CC(=O)N([C@H](C)CO)C[C@@H]2C)cc1	1.7
C[C@H]1CN([C@@H](C)CO)C(=O)c2cccc(NS(=O)(=O)c3ccccc3)c2O[C@@H]1CN(C)C	-0.2
O=C1O[C@@H](c2ccccc2)[C@@H](c2ccccc2)N2[C@@H](c3ccc(O)cc3)[C@]3(C(=O)Nc4ccc(C#CCCO)cc43)[C@@H](C(=O)N3CCCCCCC3)[C@H]12	0.4
C[C@@H]1CCCCO[C@@H](CN(C)C(=O)CCC(F)(F)F)[C@H](C)CN([C@@H](C)CO)C(=O)c2cc(NS(=O)(=O)c3ccccc3)ccc2O1	-0.3
Cc1cc(C(=O)Nc2cccc3c2O[C@H](CN(C)C(=O)Nc2cccc4ccccc24)[C@@H](C)CN([C@H](C)CO)C3=O)n(C)n1	0.3
C[C@@H]1CCCCO[C@H](CN(C)S(=O)(=O)c2cn(C)cn2)[C@H](C)CN([C@@H](C)CO)C(=O)c2cc(NS(C)(=O)=O)ccc2O1	-1.1
C[C@@H]1CN([C@@H](C)CO)C(=O)c2cccc(NC(=O)c3ccncc3)c2O[C@@H]1CN(C)Cc1ccc(C(F)(F)F)cc1	-0.3

These rows are one share of the data; count on the stated rates, not on these rows.
